Screening data deposited in PubChem BioAssay by National Center for Advancing Translational Sciences (NCATS).
ClpP mod: qHTS Assay for Activators of ClpP. purified B. subtilis ClpP, FRET peptide cleavage, 20 min. ATP-dependent Clp protease proteolytic subunit (Bacillus subtilis (strain 168)), P80244. 340,000 compounds, 1.9% hits. Potency, µM (series often up to 57.5 µM), inactives show at the top dose activity change, negative = active; active = well fitted falling curve with a large enough effect; inconclusive = small, poorly fitted or top-dose-only effect; inactive = no such curve, though single readings can be large or run the other way; note: potency is the fitted concentration of half-maximal effect; the source files actives as falling curves though it sought activators and does not explain the sign; nearly all actives have a fitted effect of over 65% in size; many hits overshoot -100%
Target sequence (P80244 whole entry, looked up): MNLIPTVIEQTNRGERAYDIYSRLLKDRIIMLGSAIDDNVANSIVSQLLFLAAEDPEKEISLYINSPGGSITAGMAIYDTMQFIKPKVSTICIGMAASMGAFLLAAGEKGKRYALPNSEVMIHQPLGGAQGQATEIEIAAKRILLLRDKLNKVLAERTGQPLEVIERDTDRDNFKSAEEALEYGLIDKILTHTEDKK
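Buffer: 100 mM Tris/HCl pH8, 100 mM KCl, 0.05% low protease BSA, 2.5% glycerol, 0.01% Tween-20. ClpP 10 microg/mL final; 20 min RT; delta FRET normalized to ADEP and DMSO controls.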
TRPV1 potentiator: enhances activation of the human vanilloid receptor TRPV1. TRPV1-expressing cells, Fluo-8 calcium influx, capsaicin EC20 potentiation; host cell line not named in the record; control for the full effect not named in the record. potentiation, % at 8.33 µM. 320,000 compounds, 0.02% hits; active means potentiation above 80%; inconclusive means 30% to 80%; inactive means below 30%; note: 0% is about no effect
Target sequence (Q8NER1 whole entry, looked up): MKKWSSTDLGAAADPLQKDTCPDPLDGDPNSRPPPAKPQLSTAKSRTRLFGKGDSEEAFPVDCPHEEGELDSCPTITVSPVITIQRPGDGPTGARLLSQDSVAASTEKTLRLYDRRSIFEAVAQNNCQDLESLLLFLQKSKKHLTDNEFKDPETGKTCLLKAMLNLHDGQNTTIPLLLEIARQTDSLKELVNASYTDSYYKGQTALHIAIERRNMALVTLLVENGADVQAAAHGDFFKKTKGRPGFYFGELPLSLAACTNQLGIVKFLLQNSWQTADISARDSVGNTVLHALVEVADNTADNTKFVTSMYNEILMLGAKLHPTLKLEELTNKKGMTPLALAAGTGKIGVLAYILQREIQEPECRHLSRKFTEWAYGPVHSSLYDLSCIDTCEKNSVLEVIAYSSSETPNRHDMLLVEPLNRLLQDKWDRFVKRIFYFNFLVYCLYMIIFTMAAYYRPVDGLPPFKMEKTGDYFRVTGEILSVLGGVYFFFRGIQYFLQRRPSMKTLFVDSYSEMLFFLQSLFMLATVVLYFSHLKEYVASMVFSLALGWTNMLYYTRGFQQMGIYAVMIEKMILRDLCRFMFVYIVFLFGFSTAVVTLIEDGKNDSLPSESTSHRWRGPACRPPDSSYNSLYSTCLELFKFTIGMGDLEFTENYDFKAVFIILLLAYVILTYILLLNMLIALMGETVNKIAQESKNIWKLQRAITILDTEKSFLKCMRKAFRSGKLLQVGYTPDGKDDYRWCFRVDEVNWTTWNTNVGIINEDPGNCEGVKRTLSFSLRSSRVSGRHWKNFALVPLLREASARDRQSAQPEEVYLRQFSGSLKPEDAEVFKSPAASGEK
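Cells expressing TRPV1 were dye-loaded with Fluo-8 and read kinetically: 10 s baseline, 3 min after compound (agonist portion), then 2 min after EC20 capsaicin (allosteric enhancer portion). Calcium-bound dye fluorescence at 480/520 nm.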
Sfp inh: blocks B. subtilis Sfp PPTase activity. Potency, µM, without a hit: max response, negative = inhibition, hits mostly inhibitors. Biochemical Sfp PPTase activity, qHTS. 310,000 compounds, 3.5% hits; active = well fitted inhibition curve with a large enough effect; inconclusive = small, poorly fitted or top-dose-only effect, or another doubt; inactive = no such curve, though single readings can be large or run the other way;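 note: the enzyme is Sfp with the accession as filed and its product quenches rhodamine fluorescence; potency is the fitted concentration of half-maximal effect; 0% = enzyme reaction without inhibitor and -100% = no enzyme wells; top concentration of the series not given in the record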
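Sfp 15 nM + cpd, 15 min RT; start w/ rhodamine-CoA 5 uM, BHQ-2-YbbR 12.5 uM (final); 50 mM Hepes pH 7.6, 10 mM MgCl2, 0.01% NP-40, 0.01% BSA; read 525/598 nm at 0 and 30 min.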
Menin MLL FP FL: menin-MLL binding inhibition, fluorescein peptide | Fluorescence polarization, fluorescein-MLL peptide displacement from menin | FP activity change, % at 61.4 µM | 290,000 tested, under 10 active | AID 1766; inconclusive = falling polarisation curve, or a change in total fluorescence; inactive = total fluorescence flat and polarisation flat or rising; no compound was filed as active; the % refers to the polarisation; negative = inhibition;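 note: % of control where 0% means no effect; inhibitors lower the polarisation; unlabelled MLL peptide was the positive control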
gsp agonist: agonists of gsp mutant (McCune-Albright syndrome) | 340,000 compounds, 0.13% hits | gsp mutant cells, cAMP HTRF, 30 min; control for the full effect not named in the record | AID 624287 | Potency, µM (highest dose often 76.9 µM), without a hit: top-dose activation (cAMP increase), actives largely listed as activators; active = well fitted activation curve with a large enough effect; inconclusive = small, poorly fitted or top-dose-only effect, or another doubt; inactive = no such curve, though single readings can be large or run the other way; cell line not stated here;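 note: phosphodiesterase inhibitor Ro 20-1724 added with compounds to block cAMP breakdown; potency is the fitted concentration of half-maximal effect; nearly all actives have a fitted effect of over 60% in size; about a fifth of the inactives were tested at one dose only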
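Cells in DMEM/10% FBS with G418 were pretreated with compounds in DMSO plus […] (300 uM stock) for 30 min at 37C. cAMP was measured by HTRF (cAMP-d2 plus anti-cAMP antibody-K) after 30 min at room temperature.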
CtBP-E1A blk: blocks the CtBP interaction with E1A | AlphaScreen GST-E1A/His-CtBP binding, 1536-well; active compounds read low; control for the full effect not named in the record | activity change, % (concentration not given with the values) | 340,000 compounds, 0.49% hits; in the data active means activity change below about -65%; inconclusive means about -30% to -65%; inactive means above about -30%; note: % is set by controls: 0 for no effect and ±100 for the full control effect
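Steps: dispense buffer (Tris pH 8.0, NaCl 300 mM, TCEP 1 mM, BSA, Tween 20); add 5X protein mix (GST-E1A, His-CtBP, 125 nM each); pin 23 nL compound; 2 h at 37 °C, dark; add 5X beads (50 ug/mL); 1 h; read.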
gsp antagonist: antagonists of gsp mutant (McCune-Albright syndrome). Potency, µM (highest dose often 76.9 µM), for the others: top-dose activity change, negative = inhibition, hits mostly inhibitors. gsp-mutant cells, cAMP HTRF, 30 min; control for the full effect not named in the record. 340,000 compounds, 0.4% hits. AID 624288; active = falling curve of any shape with a large fitted effect; inconclusive = falling curve, mostly with a smaller effect; inactive = flat or rising curve; cell line not stated here;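 note: intracellular cAMP measured with PDE inhibitor Ro 20-1724 present during compound exposure; potency is the fitted concentration of half-maximal effect; % is set by controls: 0 for no effect and ±100 for the full control effect; nearly all actives have a fitted effect of over 65% in size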
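Measurement of cellular cAMP by homogeneous time-resolved fluorescence following a 30 min compound exposure at 37C. The PDE inhibitor […] was present throughout; the assay buffer was DPBS with 0.05% BSA and 0.005% Tween 20.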
* = called active by the depositor; ? = inconclusive; nt = no result given; [ ] = dose if it differs, or a comment.

SMILES	ClpP mod	TRPV1 potentiator	Sfp inh	Menin MLL FP FL	gsp agonist	CtBP-E1A blk	gsp antagonist
Cc1cc(C)nc(NNC2=CC(=[N+]3CCCCC3)CC(C)(C)C2)n1	nt	6	-86%	0.2	5%[15.4 µM]	0	16%
CCC(C)(C)n1nnnc1C(c1cccs1)N1CCCCC1 (centres undefined)	1.2%	-4	-11%	0.7	-83%[inhibitor]	nt	-12%
COc1ccccc1C1CC(=O)Oc2ccc(C(C)(C)C)cc21 (centres undefined)	2.2%	nt	1%	-1.4[94.6 µM]	nt	8	?
COc1ccc(N=Cc2[nH]c3ccccc3c2O)cc1	-21%	3	-99%	?	-67%[inhibitor]	0	-9%
CCCc1nc2ccc(NC(C)=O)cc2c(=O)n1Cc1ccc(Cl)cc1	nt	-7	-2%	2.1	11%[15.4 µM]	-8	-14%
CN(C)c1ccc(NC(=O)Cn2ncn3c(cc4ccccc43)c2=O)cc1	0.9%	4	6%	0.3	-48%[inhibitor]	47	-1%
N/C(=N\N=C\c1cccs1)SC1CC(=O)N(c2ccc(Br)cc2)C1=O (centres undefined)	nt	-5	0%	6.7	-2%[15.4 µM]	4	4%
Cc1ccc(C(=O)NCC(=O)OCC(=O)c2ccc(C)c([N+](=O)[O-])c2)cc1	0.3%	-5	13%	-1.1	-43%[inhibitor]	4	-7%
CCCCOC(=O)Cn1c(=O)oc2ccc(C)cc21	-1.1%	8	17%	0.7	-3%	4	-22%
O=C(Nc1nc2ccccc2s1)c1ccc(F)cc1	-0.2%	-13	11%	2.7	?	nt	7%
CCOC(=O)C1CCCN(C/C=C/c2ccccc2)C1 (centres undefined)	nt	3	-11%	0.7	-37%[inhibitor]	-6	3%
C=CCNC(=O)COc1ccc(Oc2ccccc2)cc1	nt	-20	12%	7.7	3%[15.4 µM]	-10	nt
Cc1csc(NC(=O)c2ccc(C)s2)n1	nt	nt	nt	nt	9%	-15	-15%
CC(C)Sc1n[nH]c2nc3c(c(=O)n12)C1(CCCC1)Cc1ccccc1-3	nt	2	23%	2.4	nt	nt	nt
Cc1nc(C)c(C(=O)OCC(=O)NCc2ccccc2Cl)s1	nt	nt	nt	nt	-8%	41	4%
COCc1cc(N2CCCC2)nc(-c2ccccc2)n1	nt	-19	4%	-0.4	11%[15.4 µM]	5	-5%
O=C(NCCCn1ccnc1)C(Cc1ccc([N+](=O)[O-])cc1)N1C(=O)c2ccccc2C1=O (centres undefined)	-1.9%	0	14%	1.7	5%	-4	-2%
O=[N+]([O-])c1ccc(CN2CC(N3CCN(CCO)CC3)CS2(=O)=O)cc1 (centres undefined)	2.1%	nt	nt	nt	-54%[inhibitor]	-3	nt
O=C(NCCCN1CCOCC1)C(=O)c1c[nH]c2ccccc12	nt	6	10%	-3.6	13%	7	5%
O=C(C1CCC(CNc2c(N3CCCCC3)c(=O)c2=O)CC1)N1CCN(C2CCCCC2)CC1 (centres undefined)	0.2%	nt	-1%	0.1	5%	3	7%
CC(C)c1ccccc1NC(=O)C1CC(=O)N(C2CCCC2)C1 (centres undefined)	0.3%	-15	10%	3.6	4%	-1	4%
Cc1ccc(NC(=O)C(=O)NNC(=O)c2cccs2)cc1	-1.7%	1	16%	0.5	-13%	nt	1%
COc1ccccc1/C=N\Nc1ccccc1[N+](=O)[O-]	1.3%	4	-18%	4.6	-6%[15.4 µM]	0	-24%
CCOC(=O)c1ccc2nc(NC(=O)C(C)C)sc2c1	-6.7%	-21	-5%	0.1	17%	2	-3%
C=CCn1c(CCCNC(=O)c2ccccc2OC)nc2ccccc21	-1.1%	-19	14%	-3.8	22%	-2	0%

The final 3 records of the section before are carried over, then new ones follow.
SMILES	ClpP mod	TRPV1 potentiator	Sfp inh	Menin MLL FP FL	gsp agonist	CtBP-E1A blk	gsp antagonist
COc1ccccc1/C=N\Nc1ccccc1[N+](=O)[O-]	1.3%	4	-18%	4.6	-6%[15.4 µM]	0	-24%
CCOC(=O)c1ccc2nc(NC(=O)C(C)C)sc2c1	-6.7%	-21	-5%	0.1	17%	2	-3%
C=CCn1c(CCCNC(=O)c2ccccc2OC)nc2ccccc21	-1.1%	-19	14%	-3.8	22%	-2	0%
O=C(O)c1cc(-c2ccco2)nn1-c1cccc(Cl)c1	nt	16	20µM*	?	8%[15.4 µM]	0	-7%
Nc1c(C(=O)Nc2ccccc2)nnn1-c1ccc2c(c1)OCCO2	nt	25	0%	-2.6	3%[15.4 µM]	-10	-19%
O=C(CSc1ccc(Cl)cc1)NNC(=O)c1cccnc1	-8.0%	-6	9%	-0.8	-3%[15.4 µM]	1	-20%
CCN(CC)C(=O)COC(=O)C1=NN(c2cc(C)ccc2C)C(=O)CC1	nt	6	-1%	2.2	3%[15.4 µM]	2	6%
O=S(c1ccsc1)c1ccsc1	0.8%	12	8%	1.3	-21%	4	4%
COc1ccc(C(C(=O)NC2CCCC2)N(CCCO)C(=O)c2snc(C(N)=O)c2N)cc1 (centres undefined)	nt	2	11%	3.7	0%	-2	2%
COc1ccc(C(=O)C2CCCN(Cc3cccn3-c3ccccn3)C2)c(OC)c1 (centres undefined)	nt	0	17%	0.7	-31%	-7	-2%
Cc1cc(NC(=O)c2ccccc2)ccc1NC(=O)c1ccccc1Cl	134%	-12	18%	0.6	-11%	15	27%
CN(C(=O)c1ccc2c(Cl)c3c(nc2c1)CCC3)c1ccccc1	-0.6%	8	-10%	3.0	-14%	-2	-20%
COc1cccc(C2(O)CCN(C(=O)C3CC3)CC2)c1	-2.9%	3	5%	0.5	7%	0	5%
COc1ccccc1C(=O)Nc1ccc(OCC(=O)N2C(C)CCCC2C)cc1 (centres undefined)	-0.1%	-8	nt	nt	-33%[inhibitor]	nt	-8%
O=C(CO/N=C/c1c(Cl)cccc1Cl)NNC(=O)c1cccc(Cl)c1	2.6%	12	14%	-2.1	-15%[15.4 µM]	8	6%
Cc1cc(C(=O)c2ccccc2)c(NC(=O)CCl)s1	-1.7%	-7	?	8.2	-1%	5	-7%
CCOC(=O)C(CCCCOc1cccc(CC)c1)C(=O)OCC	-2.3%	-3	14%	6.4	11%[15.4 µM]	51	6%
CC(C)n1nc(C(=O)Oc2cc(Cl)ccc2Cl)c2ccccc2c1=O	1.6%	0	8%	3.5	?	1	-2%
Cc1cccc(C)c1N=Cc1c(O)n(-c2nccs2)c(=O)c2ccccc12	-1.5%	-3	-5%	5.5	-4%	-13	-21%
CC(C)Sc1nnc([C@@H]2CCCN2C(=O)OC(C)(C)C)o1	0.5%	-17	1%	2.3	2%	8	10%[15.4 µM]
CCOc1ccc(/C=N/NC(=O)c2csc(C)c2C)c(OCC)c1	-19%	-3	11%	0.6	0%[15.4 µM]	0	-7%
CC(=O)N1CCN(c2ccc(NC(=O)c3cccc(C)c3)cc2)CC1	-2.5%	-9	7%	-0.6	18%[15.4 µM]	-7	-4%
CCc1noc(C)c1C(=O)N(C)CC(=O)Nc1ccc(Br)cc1C	-1.8%	-3	nt	nt	-2%[15.4 µM]	0	3%
CCOC(=O)CSC1=C(C#N)C(c2ccccc2C)C2=C(CCCC2=O)N1 (centres undefined)	2.4%	-7	14µM*	3.7	-8%	4	-6%
COc1ccc(C)cc1S(=O)(=O)NC1CCCCCC1	1.1%	3	9%	nt	-6%	8	0%
Cc1ccc(C)c(S(=O)(=O)N2CCCOC2CNC(=O)C(=O)NCc2cccs2)c1 (centres undefined)	1.2%	5	14%	nt	-7%[15.4 µM]	4	-7%
O=C(Cn1cnc2c(oc3ccccc32)c1=O)N1CCN(c2ccccc2)CC1	-22%	3	5%	-0.3	16%	-8	4%
Cc1cc(C(=O)N2CCN(S(=O)(=O)c3ccc(F)c(Cl)c3)CC2)c(C)o1	0.0%	-15	nt	nt	27%	2	15%

Sfp inh: what is marked active above.
| smiles | Sfp inh | Menin MLL FP FL | gsp agonist | CtBP-E1A blk | gsp antagonist |
| --- | --- | --- | --- | --- | --- |
| O=C(O)c1cc(-c2ccco2)nn1-c1cccc(Cl)c1 | 20µM* | ? | 8%[15.4 µM] | 0 | -7% |
| CCOC(=O)CSC1=C(C#N)C(c2ccccc2C)C2=C(CCCC2=O)N1 (centres undefined) | 14µM* | 3.7 | -8% | 4 | -6% |

Remaining list, next part
SMILES	ClpP mod	TRPV1 potentiator	Sfp inh	Menin MLL FP FL	gsp agonist	CtBP-E1A blk	gsp antagonist
CCc1nnc(NC(=O)c2ccc(F)c(S(=O)(=O)N3CCCCC3)c2)s1	-1.7%	2	17%	0.7	63%	-1	-8%
N#Cc1c(N2CCCC2)ccc(Br)c1Cl	-0.5%	-7	-8%	5.2	-5%	75	-12%
COc1ccc(/C=C2/S/C(=N/S(=O)(=O)Cc3ccccc3)NC2=O)cc1OC	-4.5%	3	3%	13	-11%	-9	1%
CC(C)Cc1nc2sc3c(c2c(=O)n1N)CC(C(C)C)OC3 (centres undefined)	-0.1%	-5	18%	0.7	?	14	-5%
Cc1nn2c3ccccc3n(Cc3ccccc3)c2nc1=O	-6.1%	?	13%	1.8	?	6	-4%
Cc1ccc2cccc(S(=O)(=O)N3CCN(c4cccc(Cl)c4)CC3)c2n1	-5.8%	4	4%	12	17%	0	-14%
CC(C)CCN(CC(=O)NC(C)(C)C)C(=O)C(=O)Nc1ccc2c(c1)OCCO2	nt	4	8%	5.0	-12%	-9	6%
Nc1ncnc2nc(SCCOc3ccc(Cl)cc3)[nH]c12	-0.8%	3	-5%	4.0	-29%	-7	9%
CN(C)C(=O)CCc1ccc2c3c([nH]c2c1)[C@]1(C)[C@@H](C(=O)N2CCOCC2)C[C@H](CC(=O)NCCc2ccccn2)C(=O)N1CC3	0.6%	nt	nt	nt	nt	-2	-3%
O=C(N/N=C/c1cccc2cccnc12)c1ccccc1O	1.2%	-22	16%	6.7	14%	nt	-5%
COc1ccc(NC(=O)Cc2c[nH]c3ccccc23)cc1S(=O)(=O)N1CCCCC1	0.8%	11	-8%	5.2	9%	-4	-6%
